RecA intein inh: inhibitors of M. tuberculosis RecA intein splicing | cell-free RecA intein splicing, fluorescence | 0.75% of 290,000 active | P9WHJ3 | inhibition, %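 (about 9 µM by stock and volumes)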; in the data active means inhibition above about 30%; inconclusive means no clear call, values can overlap the other calls;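 further: 0% = vehicle wells and 100% = reference inhibitor control wells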
Target sequence (P9WHJ3 whole entry, looked up): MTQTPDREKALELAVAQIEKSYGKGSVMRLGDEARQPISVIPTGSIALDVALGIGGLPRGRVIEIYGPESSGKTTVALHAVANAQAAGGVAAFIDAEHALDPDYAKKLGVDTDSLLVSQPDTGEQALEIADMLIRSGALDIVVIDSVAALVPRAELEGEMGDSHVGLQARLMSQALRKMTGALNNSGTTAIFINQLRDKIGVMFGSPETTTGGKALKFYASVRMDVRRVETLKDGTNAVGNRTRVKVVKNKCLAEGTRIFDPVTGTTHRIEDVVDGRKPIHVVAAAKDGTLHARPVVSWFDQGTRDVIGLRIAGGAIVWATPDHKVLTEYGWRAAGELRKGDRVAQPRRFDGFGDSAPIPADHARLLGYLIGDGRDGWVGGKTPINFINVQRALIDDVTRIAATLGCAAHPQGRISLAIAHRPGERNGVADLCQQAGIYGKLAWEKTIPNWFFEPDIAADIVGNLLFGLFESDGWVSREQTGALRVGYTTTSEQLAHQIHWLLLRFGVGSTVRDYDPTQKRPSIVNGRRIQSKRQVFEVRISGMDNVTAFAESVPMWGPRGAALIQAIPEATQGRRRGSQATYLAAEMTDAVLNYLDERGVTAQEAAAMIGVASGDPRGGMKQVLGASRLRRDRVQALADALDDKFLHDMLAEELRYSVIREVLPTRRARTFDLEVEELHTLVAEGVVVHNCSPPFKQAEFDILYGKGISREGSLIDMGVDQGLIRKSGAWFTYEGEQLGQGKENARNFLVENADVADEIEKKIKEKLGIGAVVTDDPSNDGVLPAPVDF
Mtb bLac sens: beta-lactam sensitization of Mtb H37Rv | inhibition, % at 25 µM | M. tuberculosis H37Rv growth with meropenem, percent inhibition; hits of this screen are not shown here | 0.27% of 330,000 active;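 active means about 74% or more and at least 40 points above the plate without the antibiotic, then above 30% in a dose series; inconclusive means first-round hits that could not be retested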;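 further: growth measured after seven days incubation then overnight dye step; 0% = bacteria only wells and 100% = bacteria with antibiotic; twin plates without the antibiotic show which effects depend on it; some results filed as inactive read as strong as hits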
Arbovirus inh: arbovirus infection inhibition; arbovirus infection cell-based antiviral screen; inhibition, % at 10 µM; 0.37% of 200,000 active;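 active means inhibition from about 30%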;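 further: bluetongue infection of BSR cells; cell survival read as ATP light after 72 h; 0% = infected wells without compound and 100% = uninfected wells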
Mtb growth: M. tuberculosis H37Rv growth inhibitors, H37Rv strain (AID 1626) | M. tuberculosis H37Rv growth inhibition; higher % means a stronger effect | one-dose inhibition, % at 10 µM; IC50 in µM for titrated hits | 0.95% of 220,000 active;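 active means confirmed in a dose series; inconclusive means inhibition above 80% but not taken into the dose series; inactive means below 80% or under 30% at every dose of the series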;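 further: bacteria incubated seven days before Alamar blue readout; 0% = bacteria only wells and 100% = bacteria with antibiotic wells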
YopH PTP inh: inhibitors of Yersinia enterocolitica YopH tyrosine phosphatase; fluorescence Ex485/Em525; inhibition, %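 (about 10 µM by stock and volumes)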; 0.16% of 140,000 active; AID 898;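 active means inhibition of 50% or more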;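 further: controls were vehicle for no effect and minimum signal wells for full effect; inactives centre near -20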
Arbovirus inh repeat: second read-out of Arbovirus inh, no call of its own (marks repeat the call); inhibition, %; measured here: 10K subset replicate screen; many hits read low in the repeat;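 first of two repeat runs on a subset; 0% = infected and 100% = uninfected wells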
* hit, by the source's call; ? = inconclusive; . = not tested or not shown.

SMILES	RecA intein inh	Mtb bLac sens	Arbovirus inh	Mtb growth	YopH PTP inh	others
COc1cc(NC(=O)C2CCCN2S(=O)(=O)c2cccc3cccnc23)cc(OC)c1OC (centres undefined)	0.1	-1	1	.	-44	Arbovirus inh repeat=0
CC(C)(C)C(=O)Nc1ccc(-c2cnco2)cc1	-1.2	7	.	.	.
COc1cc(OC)cc(C(=O)Nc2ccc(-c3nc4ccccc4o3)c(O)c2)c1	2.6	95	6	66%	-41
Cc1ccc(C(=O)NCCNS(C)(=O)=O)cc1	-1.0	-9	10	3%	.
Cc1cc(=S)nc(-c2ccccn2)[nH]1	2.3	.	.	-4%	.
O=C(NCc1ccccc1)OCCN1CCN(Cc2ccccc2)CCC1=O	5.5	-3	-5	-10%	-12
Fc1ccc(CSc2nc3ccccc3[nH]2)c2ccccc12	17	0	-30	0%	14
CCOc1ncccc1C(=O)OCC(=O)c1cc(OC)ccc1OC	1.3	-6	-1	-5%	.
CC(C)c1ccc(CN2CCN(C(=O)CCl)CC2)cc1	.	.	0	18%	.
Fc1ccc(CSc2nnc(-c3cccnc3)o2)cc1	4.8	26	-21	6%	.
COc1ccc(OC)c(-n2c(N)c(C(=O)NCC3CCCO3)c3nc4ccccc4nc32)c1 (centres undefined)	8.8	.	-2	0%	-19
Cc1ccc(Cn2c(=O)n(CCC(=O)NCc3ccc4c(c3)OCO4)c(=O)c3ccccc32)cc1	.	-6	-6	-9%	9
CC1=C[C@@H]2c3cccc4[nH]cc(c34)C[C@H]2N(C)C1	23	-6	.	.	.
O=C(COC(=O)CNS(=O)(=O)c1ccc(F)c(F)c1F)NC1CCCC1	2.5	-10	.	.	.
O=C(Cn1cnc2ccccc2c1=O)c1c[nH]c2ccccc12	-0.1	-6	4	-5%	1
Cc1nnc(SCc2ccccc2)nc1-c1ccccc1	8.7	-5	.	6%	.
C=CCNCC(=O)Nc1sc2c(c1C(=O)Nc1ccc(OC)cc1OC)CCC2	-0.3	45	-4	6%	.
CCOc1ccc(CC(=O)Nc2ccc(NC(=O)c3ccco3)cc2)cc1OCC	4.7	.	-4	3%	.
C1CCC(n2nnnc2CN2CCCC2)CC1	1.7	5	13	-11%	-2
COc1ccc2oc(C(=O)OCC(=O)NC3CC3)c(C)c2c1	0.6	?	.	.	.
COC(=O)Nc1nnc(/C=C/c2ccc(OC)cc2)s1	-4.9	2	12	3%	-33
COc1ccccc1CN1CCN(Cc2nc(Cc3ccccc3)no2)CC1	1.1	-4	6	4%	.
Cc1oc(/N=C/c2ccc(Cl)cc2Cl)c(C#N)c1C	1.4	.	-3	-7%	-5
CN(C)c1ccc(C(=O)N/N=C/C23CC[C@@H](O)CC2(O)CC[C@@H]2[C@@H]3CCC3(C)C(C4=CC(=O)OC4)CCC23O)cc1 (some centres undefined)	-7.8	-6	.	-2%	.
Cc1ccc(Nc2ncccc2C(=O)NCc2cccs2)c(C)c1	-1.1	27	-24	14%	-57

The final 2 entries of the section before come first, to join the parts.
SMILES	RecA intein inh	Mtb bLac sens	Arbovirus inh	Mtb growth	YopH PTP inh	others
CN(C)c1ccc(C(=O)N/N=C/C23CC[C@@H](O)CC2(O)CC[C@@H]2[C@@H]3CCC3(C)C(C4=CC(=O)OC4)CCC23O)cc1 (some centres undefined)	-7.8	-6	.	-2%	.
Cc1ccc(Nc2ncccc2C(=O)NCc2cccs2)c(C)c1	-1.1	27	-24	14%	-57
COC(=O)CSC1=C(C#N)C(c2cccc(F)c2)CC(=O)N1 (centres undefined)	-4.4	11	-14	-1%	-48
COc1ccc(NC(=O)CN(C)S(=O)(=O)c2ccc(C)cc2)c([N+](=O)[O-])c1	-12	2	0	-1%	-27
Cc1ccc(-c2nn3cnnc3c3ccccc23)cc1C	2.3	1	-1	-2%	.
CCN(CC)S(=O)(=O)c1ccc(N(C)Cc2cccnc2)nc1	-0.2	-7	5	-5%	-7
CC1(C(=O)NCCCNc2ncc(C(F)(F)F)cc2Cl)C=CCN1C(=O)c1ccccc1 (centres undefined)	6.6	4	-1	-6%	-10
Cc1nc2cc(NC(=O)Nc3cccc([N+](=O)[O-])c3)ccc2n1C	3.5	-5	.	.	.
NS(=O)(=O)c1ccc(NC(=S)NNC(=O)c2cccs2)cc1	2.7	-1	-8	-10%	.
Cc1noc(/C=C/N(C)C)c1S(=O)(=O)N1CCCC(C(=O)NC2CCCCC2C)C1 (centres undefined)	2.2	2	-11	.	-45	Arbovirus inh repeat=-21
CCc1cccc(OCC2Cn3c(nc4c3c(=O)n(C)c(=O)n4C)O2)c1 (centres undefined)	-4.1	12	.	.	.
O=C1CC2(CCN(C(=O)c3c(F)cccc3Cl)CC2)Oc2ccccc21	-1.3	-14	.	.	.
Cc1nc2ccccc2c(=O)n1/N=C1\C(=O)N(C)c2ccccc21	8.2	-5	-12	-7%	.
Cc1sc2ncnc(OCC(=O)NCC3CCCO3)c2c1C (centres undefined)	-4.4	-1	6	-12%	-43
COC(=O)c1c(O)ccc(Oc2ccccc2)c1C(=O)OC	-6.6	2	12	2%	.
COCCNC(=O)Cn1cc(S(=O)(=O)N2CCN(c3ccccc3F)CC2)c2ccccc2c1=O	-6.6	-8	-1	0%	.
CCOC(=O)N1CCN(c2c(NC3CCN(Cc4ccccc4)CC3)c(=O)c2=O)CC1	0.7	-6	5	2%	-27
Fc1ccc(CNC(=S)Nc2ccccc2Cl)cc1	1.9	-6	-4	4%	9
COc1ccc(OC)c(NC(=O)CCCCCn2nnc3ccccc3c2=O)c1	0.0	-2	.	.	.
O=C1NC[C@H](c2ccccc2)N(CCc2cc(C(F)(F)F)cc(C(F)(F)F)c2)C1=O	-2.4	3	.	-5%	.
Cc1ccccc1NC(=O)C(NS(=O)(=O)c1ccc2c(c1)c(=O)n(C)c(=O)n2C)c1ccccc1 (centres undefined)	1.1	3	-6	-5%	-47
CCC(=O)N1N=C(c2c(O)n(C)c(=O)n(C)c2=O)CC1c1ccccc1 (centres undefined)	12	90	.	5%	.
O=C(NC(NC(=S)Nc1c(Cl)cccc1Cl)C(Cl)(Cl)Cl)OCc1ccccc1 (centres undefined)	6.1	-2	-25	9%	-21
COc1ccc(CNC(=O)NCCc2c[nH]c3ccccc23)cc1	-1.1	-7	.	.	.
COc1ccc(N2C(=NC(=O)C3CC3)SC3CS(=O)(=O)CC32)cc1Cl (centres undefined)	-1.9	-7	.	.	.
CC1CCC(NC(=O)C(Cc2ccccc2)n2cccc2)CC1 (centres undefined)	-2.8	-10	.	1%	.
O=C(CCc1ccc(S(=O)(=O)NC2CCCCC2)cc1)NCc1ccccn1	1.7	-4	-1	-1%	.

Going on with the list:
SMILES	RecA intein inh	Mtb bLac sens	Arbovirus inh	Mtb growth	YopH PTP inh	others
CCOC(=O)c1[nH]c2ccc(OCC)cc2c1NC(=O)CN1CCN(c2ccccc2)CC1	0.1	-5	0	-5%	-17
COc1ccc(NC(=O)C2CCCO2)cc1Cl (centres undefined)	.	46	2	66%	-21
CC(C)(O)[C@H]1Cc2cc3ccc(=O)oc3cc2O1	1.1	-4	.	.	.
CCOc1ccccc1NC1c2ccccc2C(=O)N1Cc1ccco1 (centres undefined)	-0.9	-4	-8	11%	-17
CCCCn1ccnc1C(=O)c1cccc(S(=O)(=O)N2c3ccccc3CC2C)c1 (centres undefined)	-2.1	-7	-3	0%	-25
N#Cc1ccc(/C=N/NC(=O)c2cc(-c3cccs3)nc3ccccc23)cc1	1.1	93	3	61%	-19
CCOc1ccc(CNC(=O)CCSCc2ccccc2F)cc1OC	5.5	8	3	2%	.
COc1cc(/C=N/Nc2nc3ccccc3[nH]2)cc(Br)c1OCC(=O)N(C)C	0.4	68	4	-1%	.
CCOC(=O)c1sc(C)c2c1NC(c1ccc(N(C)C)cc1)NC2=O (centres undefined)	-1.7	24	2	-1%	1
O=C(Cn1cc([N+](=O)[O-])nc1[N+](=O)[O-])N1CCN(c2ccccc2)CC1	7.6	100	-11	8%	.
Cc1nn(-c2ccccc2)c(C)c1NC(=O)COC(=O)c1ccc(Cl)c(S(N)(=O)=O)c1	5.0	-9	.	.	.
Nc1ccc2oc(-c3ccccc3Cl)cc(=O)c2c1O	-0.5	2	-14	5%	-30
O=C(OC1CCOC1=O)c1ccc(NS(=O)(=O)c2cccs2)cc1 (centres undefined)	-1.2	-2	11	5%	.
Cc1ccc(OCC(=O)NC(=S)Nc2ccc3c4c(cccc24)CC3)cc1	-0.9	3	3	14%	-24
CC(C)c1ccc(NC2CCCN(C(=O)CCN3CCCCO3)C2)cc1 (centres undefined)	-2.3	-13	.	.	.
CC(=O)N1CCN(c2cc(N3CCc4ccccc4C3)c(F)cc2[N+](=O)[O-])CC1	7.9	60	6	11%	-16
COc1nc(NCCc2ccc(OC)c(OC)c2)nc(Nc2ccccc2)n1	-0.1	49	.	.	.
O=C(CSc1nc2c(c(=O)n1-c1ccccc1)SCC2)NCC1CCCO1 (centres undefined)	0.8	0	.	.	.
COc1ccc(CNC(=O)COC(=O)CN2C(=O)C(C)Oc3ccc(C)cc32)cc1 (centres undefined)	-1.0	0	.	.	.
O=C(/C=C/c1ccc(Br)o1)NCc1ccccc1	-1.1	-9	-6	-3%	.
O=C(COc1ccc(Cl)cc1)Nc1ccc2c(c1)nc1n2CCOC1	-1.4	-2	.	.	.
COc1ccc(C(=O)CSc2nnc(-c3cnccn3)n2Cc2ccco2)cc1	1.6	?	3	1%	-28
N#CC1=C(N)SC(N)=C(C#N)C1C1C=CCCC1 (centres undefined)	1.5	-12	-8	-3%	-27
Cc1ccc(NC(=O)CCNS(=O)(=O)c2ccc(OC(F)(F)F)cc2)c(O)c1	-0.4	-3	.	.	.
CCCc1cc(-n2ccnc2)n2c(nc3ccccc32)c1C#N	-38	23	-15	.	9

Seven compounds drawn at random from the list so far, as already listed:
SMILES	RecA intein inh	Mtb bLac sens	Arbovirus inh	Mtb growth	YopH PTP inh	others
CC(C)c1ccc(NC2CCCN(C(=O)CCN3CCCCO3)C2)cc1 (centres undefined)	-2.3	-13	.	.	.
CCCc1cc(-n2ccnc2)n2c(nc3ccccc32)c1C#N	-38	23	-15	.	9
O=C(/C=C/c1ccc(Br)o1)NCc1ccccc1	-1.1	-9	-6	-3%	.
O=C(OC1CCOC1=O)c1ccc(NS(=O)(=O)c2cccs2)cc1 (centres undefined)	-1.2	-2	11	5%	.
CC(=O)N1CCN(c2cc(N3CCc4ccccc4C3)c(F)cc2[N+](=O)[O-])CC1	7.9	60	6	11%	-16
CCOC(=O)c1sc(C)c2c1NC(c1ccc(N(C)C)cc1)NC2=O (centres undefined)	-1.7	24	2	-1%	1
COc1ccc(C(=O)CSc2nnc(-c3cnccn3)n2Cc2ccco2)cc1	1.6	?	3	1%	-28

Further entries.
SMILES	RecA intein inh	Mtb bLac sens	Arbovirus inh	Mtb growth	YopH PTP inh	others
CCOC(=O)C(=O)Nc1nnc(C2CCCCC2)s1	7.1	1	9	-6%	-9
COC(=O)[C@@H](NC(=O)NCCC1=CCCCC1)C(C)C	1.3	-1	.	-3%	.
O=c1cc(-c2ccc(F)cc2)oc2ccccc12	2.4	0	.	-5%	5
Cc1ccc(COC(=O)CCCN=C2NS(=O)(=O)c3ccccc32)cc1	-3.9	6	.	.	.
O=C(OC(C(=O)NCc1cccs1)c1ccccc1Cl)c1ccco1 (centres undefined)	2.2	5	3	4%	-52
COc1ccc(N2CCN(S(=O)(=O)c3cccc4nsnc34)CC2)cc1	-3.7	-9	5	-2%	-29
CCCn1c(C(=O)OC)cc2c1ccn2-c1ccc(F)cc1	14	25	-6	-5%	24
Cc1cc(NC(=O)CCN2CCC(C(N)=O)CC2)ccc1Br	-1.5	?	-12	-2%	-12
CCOc1ccc(C(=O)NCC(=O)OCc2c(C)noc2C)cc1	1.8	-4	2	10%	-14
CCCCOC(=O)CN1C(=O)c2ccc(C(=O)OCCCC)cc2C1=O	1.1	24	8	1%	-46
COC(=O)c1cc(-c2ccccc2)on1	-0.1	55	-3	45%	-9
Cc1ccc(-c2nc(-c3nccc4ccccc34)oc2-c2ccccc2)cc1	-45	85	.	75%	.
COc1ccc(NS(=O)(=O)c2ccc(NC(=S)NC(=O)CC(C)C)cc2)cc1	0.2	5	-17	6%	-1
O=C(O)CCC(NC(=O)C1CCCN1C(=O)OCc1ccccc1)C(=O)O (centres undefined)	3.1	-9	3	1%	.
Cc1sc(NC(=O)c2ccc(OCC(C)C)cc2)c(C(N)=O)c1-c1ccc(Cl)cc1Cl	-1.1	-13	-9	6%	-16
O=C(NCCc1c[nH]c2ccccc12)C1CCN(S(=O)(=O)c2ccccc2F)CC1	2.8	-1	-11	-3%	.
O=C(Nc1ccc(N2CCOCC2)cc1Cl)C1CCN(C(=O)OCc2ccccc2)CC1	0.4	71	.	3%	.
CCCCN(C)CCCNC(=O)c1cc(-c2cccs2)nc2ccccc12	1.1	2	.	.	.
CCc1ccc(C2c3[nH]c4ccccc4c3CCN2C(=O)c2cc[n+]([O-])cc2)cc1 (centres undefined)	-8.4	8	.	8%	.

High-throughput results from PubChem BioAssay.

The list is partial, so the mix of outcomes need not match the whole.
